Screens (PubChem)
ClpP mod: qHTS Assay for Activators of ClpP; purified B. subtilis ClpP, FRET peptide cleavage, 20 min; actives 1.9% (n = 340,000); AID 651965, 2013; ATP-dependent Clp protease proteolytic subunit (Bacillus subtilis (strain 168)), P80244; Potency, µM (top dose mostly 57.5 µM), for inactives: at the highest dose activity change, negative = active; active = well fitted falling curve with a large enough effect; inconclusive = small, poorly fitted or top-dose-only effect; inactive = no such curve, though single readings can be large or run the other way; also: potency is read from the fitted curve at half-maximal effect; the source files actives as falling curves though it sought activators and does not explain the sign; nearly all actives have a fitted effect of over 65% in size; many hits overshoot -100%
Target sequence (P80244 whole entry, looked up): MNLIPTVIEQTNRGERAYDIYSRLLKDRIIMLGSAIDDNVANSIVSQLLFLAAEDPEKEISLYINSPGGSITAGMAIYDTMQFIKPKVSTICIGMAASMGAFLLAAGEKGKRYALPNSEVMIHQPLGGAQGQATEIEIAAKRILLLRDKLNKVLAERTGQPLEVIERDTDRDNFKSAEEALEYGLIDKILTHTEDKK
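ClpP 10 microg/mL final, pH 8 Tris/KCl buffer with BSA, glycerol, Tween-20; compound pinned in; FRET-FV substrate; RT 20 min; Ex320/Em430; ΔFRET vs ADEP 5.8 microM, DMSO, no enzyme.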
TRPML1 blocker: human mucolipin-1 channel inhibition; Q9GZU1; TRPML1-inducible cells, Ca2+ dye fluorescence, FDSS; active compounds read low; inhibition of EC80 agonist-evoked calcium signal; activity change, negative = inhibition, % (concentration not given with the values); actives 0.02% (n = 390,000); in the data active means activity change below about -50%; inconclusive means about -30% to -50%; inactive means above about -30%;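 also: stimulus is agonist 54-4 at its EC80 concentration; % is scaled to controls: 0 for no effect and ±100 for the full control effect; the text of the record puts the active cut at -80%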
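Tet-induced TRPML1-DL cells loaded with Ca8 no-wash calcium dye were read kinetically on FDSS. Compound addition was followed by EC80 agonist 54-4 (4 uM final); inhibition was read over 110 s.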
gsp antag: antagonists of gsp mutant (McCune-Albright syndrome); gsp-mutant cells, cAMP HTRF, 30 min; control for the full effect not named in the record; actives 0.4% (n = 340,000); Potency, µM (titrated, usually from 76.9 µM), for inactives: top-dose activity change, negative = inhibition, most hits filed as inhibitors; active = falling curve of any shape with a large fitted effect; inconclusive = falling curve, mostly with a smaller effect; inactive = flat or rising curve; cell line not stated here;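 also: intracellular cAMP measured with PDE inhibitor Ro 20-1724 present during compound exposure; potency is read from the fitted curve at half-maximal effect; % is scaled to controls: 0 for no effect and ±100 for the full control effect; nearly all actives have a fitted effect of over 65% in size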
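Measurement of cellular cAMP by homogeneous time-resolved fluorescence following a 30 min compound exposure at 37C. The PDE inhibitor […] was present throughout; the assay buffer was DPBS with 0.05% BSA and 0.005% Tween 20.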
Menin MLL FP FL: displaces fluorescein MLL peptide from human menin; FP activity change, % at 61.4 µM; Fluorescence polarization, fluorescein-MLL peptide displacement from menin; 290,000 tested, under 10 active; inconclusive = falling polarisation curve, or a change in total fluorescence; inactive = total fluorescence flat and polarisation flat or rising; no compound was filed as active; the % refers to the polarisation; negative = inhibition;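 also: % of control where 0% means no effect; inhibitors lower the polarisation; unlabelled MLL peptide was the positive control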
TRPV1 potentiator: human TRPV1 potentiation | Q8NER1 | TRPV1-expressing cells, Fluo-8 calcium influx, capsaicin EC20 potentiation; host cell line not named in the record; control for the full effect not named in the record | potentiation, % at 8.33 µM | actives 0.02% (n = 320,000) | AID 540277; active means potentiation above 80%; inconclusive means 30% to 80%; inactive means below 30%; also: 0% is about no effect
Target sequence (Q8NER1 whole entry, looked up): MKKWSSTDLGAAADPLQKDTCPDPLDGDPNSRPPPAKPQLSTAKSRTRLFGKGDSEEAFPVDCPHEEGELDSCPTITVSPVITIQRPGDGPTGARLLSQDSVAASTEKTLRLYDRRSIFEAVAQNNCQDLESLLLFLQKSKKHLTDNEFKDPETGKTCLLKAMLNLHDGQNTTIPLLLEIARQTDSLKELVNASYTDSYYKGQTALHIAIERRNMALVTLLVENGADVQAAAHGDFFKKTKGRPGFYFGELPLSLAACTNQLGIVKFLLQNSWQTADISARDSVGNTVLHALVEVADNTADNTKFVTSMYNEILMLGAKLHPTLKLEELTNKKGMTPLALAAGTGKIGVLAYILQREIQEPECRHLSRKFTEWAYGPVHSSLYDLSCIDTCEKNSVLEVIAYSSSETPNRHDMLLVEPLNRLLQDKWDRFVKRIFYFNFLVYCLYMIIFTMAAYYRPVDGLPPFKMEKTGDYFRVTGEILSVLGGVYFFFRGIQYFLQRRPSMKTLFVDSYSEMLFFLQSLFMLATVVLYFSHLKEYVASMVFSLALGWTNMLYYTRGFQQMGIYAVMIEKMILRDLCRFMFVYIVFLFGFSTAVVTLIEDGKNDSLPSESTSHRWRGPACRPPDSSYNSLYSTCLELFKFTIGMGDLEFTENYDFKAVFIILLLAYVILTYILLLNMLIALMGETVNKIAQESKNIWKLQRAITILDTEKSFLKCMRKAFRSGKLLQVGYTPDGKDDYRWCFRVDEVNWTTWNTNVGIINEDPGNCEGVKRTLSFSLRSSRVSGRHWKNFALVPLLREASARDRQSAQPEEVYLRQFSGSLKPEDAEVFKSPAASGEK
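Fluo-8 calcium influx in TRPV1-expressing cells, kinetic read (ex 480/em 520 nm). Compound added and read 3 min for agonist activity, followed by capsaicin at EC20 final and 2 min further read for enhancement.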
Sfp PPTase inh: inhibitors of Bacillus subtilis Sfp phosphopantetheinyl transferase | Q9F4F7 | Biochemical Sfp PPTase activity, qHTS | Potency, µM, without a hit: max response, negative = inhibition, hits mostly inhibitors | actives 3.5% (n = 310,000) | AID 1490; active = well fitted inhibition curve with a large enough effect; inconclusive = small, poorly fitted or top-dose-only effect, or another doubt; inactive = no such curve, though single readings can be large or run the other way;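 also: the enzyme is Sfp with the accession as filed and its product quenches rhodamine fluorescence; potency is read from the fitted curve at half-maximal effect; 0% = enzyme reaction without inhibitor and -100% = no enzyme wells; top concentration of the series not given in the record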
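Reaction rates are the 30-min fluorescence difference (ex 525, em 598 nm) in wells containing 15 nM Sfp, 5 uM rhodamine-CoA and 12.5 uM BHQ-2-YbbR at pH 7.6 with 10 mM MgCl2.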
gsp agonist: gsp mutant agonism; gsp mutant cells, cAMP HTRF, 30 min; control for the full effect not named in the record; Potency, µM (series often up to 76.9 µM), without a hit: at the top dose activation (cAMP increase), usual class: activators; actives 0.13% (n = 340,000); active = well fitted activation curve with a large enough effect; inconclusive = small, poorly fitted or top-dose-only effect, or another doubt; inactive = no such curve, though single readings can be large or run the other way; cell line not stated here;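 also: phosphodiesterase inhibitor Ro 20-1724 added with compounds to block cAMP breakdown; potency is read from the fitted curve at half-maximal effect; nearly all actives have a fitted effect of over 60% in size; about a fifth of the inactives were tested at one dose only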
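Cells in DMEM/10% FBS with G418 were pretreated with compounds in DMSO plus […] (300 uM stock) for 30 min at 37C. cAMP was measured by HTRF (cAMP-d2 plus anti-cAMP antibody-K) after 30 min at room temperature.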
* hit, by the source's call; u = inconclusive; x = not tested or not shown; [ ] = another dose, or the depositor's remark. An unsorted share of the library; 4.9% or so of the library scored in one or more.

[1] C=CCN(C(=O)c1ccc(Cl)cc1)c1ccccc1C(=O)NCC(=O)O
[2] COC(=O)CCC(=O)COc1ccc(OC)cc1C#N
[3] COc1cccc(C(=O)N2CCN(Cc3ccc4c(c3)OCO4)CC2)c1OC
[4] COc1ccccc1NC(=O)CN1CCN(CC(=O)Nc2ccc(F)cc2)CC1
[5] Cc1noc(C)c1CCC(=O)Nc1c(C(C)C)cccc1C(C)C
[6] Cc1cc(C)c(S(=O)(=O)N2CCOC2CNC(=O)C(=O)NCc2ccncc2)c(C)c1 (stereo not drawn)
[7] CC(C)CCNC(=O)Cn1c(=O)oc2cc(S(=O)(=O)N3CC(C)CC(C)C3)ccc21 (stereo not drawn)
[8] Cc1nn2c(=O)cc(COC(=O)c3c(F)cccc3Cl)nc2s1
screen / no.,1,2,3,4,5,6,7,8
ClpP mod,x,-1.8%,-4.2%,-2.6%,-2.6%,0.7%,1.6%,-0.8%
TRPML1 blocker,-8,4,3,-9,57,7,6,8
gsp antag,6%,-3%,-1%,-11%,-8%,7%,3%,-5%
Menin MLL FP FL,-1.2,0.8,3.2,2.7,x,x,1.5,x
TRPV1 potentiator,-17,-17,0,0,2,3,-17,-9
Sfp PPTase inh,22%,20%,-26%,-3%,x,6%,23%,x
gsp agonist,-25%,-35%[inhibitor],3%,0%,-27%,-8%,0%,u

[9] CCOc1ccc(-n2c(-c3ccco3)nc3c(cnn3-c3ccc(C)cc3)c2=O)cc1
[10] Nc1ccc(CCS(N)(=O)=O)cc1
[11] Cc1ccc(NC(=O)CNc2cccc(S(=O)(=O)N3CCCC3)c2)cc1F
[12] CC(C)(C)C1CCc2c(sc3nc(SCC(N)=O)nc(N)c23)C1 (stereo not drawn)
[13] O=C(NCCCN1CCCC1=O)c1ccc2c(=O)n(Cc3ccco3)c(=S)[nH]c2c1
[14] CCCCN(C)S(=O)(=O)c1ccc(C(=O)Nc2nnc(-c3cccs3)o2)cc1
[15] Cc1nc([N+](=O)[O-])c(SCC(N)=O)n1Cc1ccccc1
[16] CCOC(=O)N1CCN(c2ncnc3scc(-c4ccc(Cl)cc4)c23)CC1
screen / no.,9,10,11,12,13,14,15,16
ClpP mod,-0.4%,-2.1%,1.6%,-16%,0.8%,x,-0.4%,1.5%
TRPML1 blocker,5,-4,-21,-3,7,x,20,30
gsp antag,-5%,2%,-6%,-19%,-17%,x,8%,u
Menin MLL FP FL,2.7,-1.4,x,0.8,7.0,-0.1,0.2,5.2
TRPV1 potentiator,4,-8,15,-12,0,8,0,-14
Sfp PPTase inh,23%,0%,x,-15%,35µM*,33%[activator],2%,-11%
gsp agonist,0%,-2%,-9%[15.4 µM],-20%,10%,x,14%,-36%[inhibitor]

[17] CC(OC(=O)CN1C(=O)C2CCCCC2C1=O)C(=O)Nc1ncc(Cl)cc1Cl (stereo not drawn)
[18] CCOc1ccc(NC(=O)CCC(=O)O)cc1
[19] CCCCn1c(N)c(N(CC)C(=O)c2ccccc2F)c(=O)[nH]c1=O
[20] CCCCN(C(=O)c1ccc2c(c1)S(=O)(=O)N=C1CCCCCN12)c1c(N)n(CC(C)C)c(=O)[nH]c1=O
[21] CC(C)(C)c1nnc(NC(=O)Cc2ccc(Br)cc2)s1
[22] COc1ccc(C)cc1NC(=O)COC(=O)c1ccc([N+](=O)[O-])o1
[23] CCS(=O)(=O)N1CCN(c2ncnc3sc(C)c(C)c23)CC1
[24] O=C(N1CCOCC1)N1c2ccccc2Sc2ccccc21
screen / no.,17,18,19,20,21,22,23,24
ClpP mod,0.8%,0.1%,x,-2.2%,-1.7%,x,x,-1.5%
TRPML1 blocker,-1,4,-26,-3,30,-11,3,7
gsp antag,-17%,-7%,-8%,1%,3%,-1%,-5%,-24%
Menin MLL FP FL,3.9,4.2,-1.7,x,3.1,0.9,-4.8,0.6
TRPV1 potentiator,16,24,1,x,8,0,-14,-3
Sfp PPTase inh,7%,-4%,10%,x,-10%,13%,13%,8%
gsp agonist,-48%[inhibitor],17%,4%[15.4 µM],7%,-33%[inhibitor],15%[15.4 µM],u,-2%

[25] Cc1ccc(NC(=O)CC2OC(=O)c3ccccc32)cc1S(=O)(=O)N1CCCCCC1 (stereo not drawn)
[26] Cc1ccc(OCc2ccc([N+](=O)[O-])cc2)c([N+](=O)[O-])n1
[27] CCCc1[nH]nc2c1C(CCC)C(C#N)=C(N)O2 (stereo not drawn)
[28] CC1CC(C)CN(S(=O)(=O)N2CCCC(C(=O)NCc3ccccc3Cl)C2)C1 (stereo not drawn)
[29] CC1CCC2(CC1)NC(=O)c1ccccc1O2 (stereo not drawn)
[30] CC(C)c1ccc(OCC(=O)Nc2ccc3oc(=O)ccc3c2)cc1
[31] CC1CCCN(C(=O)CSc2ncccn2)C1 (stereo not drawn)
[32] O=C(NCC1CCOCC1)c1ccc(OC2CCN(Cc3ccccn3)CC2)cc1
screen / no.,25,26,27,28,29,30,31,32
ClpP mod,0.4%,-2.7%,-13%,0.2%,-0.7%,x,x,-2.8%
TRPML1 blocker,12,-11,-3,1,-4,4,-13,6
gsp antag,-10%,-14%,5%,-4%,10%,-13%,-2%,13%
Menin MLL FP FL,x,x,4.4,0.5,2.7,8.3,-1.0,0.5
TRPV1 potentiator,-8,-5,15,-17,-8,-10,u,-3
Sfp PPTase inh,x,-13%,1%,11%,8%,7%,21%,9%
gsp agonist,28%,12%,-4%,28%,-2%,9%[15.4 µM],-11%[15.4 µM],-18%

[33] O=C(Nc1nccs1)c1ccc(-c2ccccc2Cl)o1
[34] Cc1ccc(OCCn2c(Br)nc3c2c(=O)n(C)c(=O)n3C)cc1
[35] CN(C)C(CNC(=O)Cc1cccc(C(F)(F)F)c1)c1ccco1 (stereo not drawn)
[36] O=C(CN1C(=O)C(=O)c2ccccc21)c1ccccc1
[37] COc1cccc(-n2nnc3c(=O)n(CC(=O)OCc4ccccc4)cnc32)c1
[38] CCN(C(=O)COC(=O)c1nc(Cl)ccc1Cl)C1CCS(=O)(=O)C1 (stereo not drawn)
[39] O=C(Nc1ccc(N2CCCCC2)cc1)c1cc(S(=O)(=O)N2CCOCC2)ccc1F
[40] C=CCOc1ccc(CN(C)CC(=O)Nc2ccc3c(c2)CCC3)cc1
screen / no.,33,34,35,36,37,38,39,40
ClpP mod,-6.8%,1.1%,x,0.0%,-4.2%,-3.0%,-1.4%,x
TRPML1 blocker,7,-3,9,4,-5,-3,3,18
gsp antag,-9%,11%,1%,4%,5%,8%,4%,-5%
Menin MLL FP FL,2.5,-3.2,5.7,0.8,5.3,x,x,0.0
TRPV1 potentiator,-18,-4,3,0,u,-27,16,-5
Sfp PPTase inh,-6%,7%,4%,-1%,23%,x,x,-7%
gsp agonist,11%,11%,-15%[15.4 µM],-6%,-28%,-68%[inhibitor],-58%[inhibitor],-2%

[41] CCOc1ccc(C2CC(c3cccc(C)c3)n3ncnc3N2)cc1 (stereo not drawn)
[42] Cc1ccc(-c2cc(C(=O)Nc3ccc(S(=O)(=O)Nc4nccs4)cc3)c3ccccc3n2)c(C)c1
[43] Cc1cc(NC(=O)c2cc(-c3ccco3)on2)no1
[44] Cc1ccn2c(C(=O)c3ccc(Cl)cc3)cnc2c1
[45] N#Cc1c(-c2ccccc2)ccn(Cc2ccccc2Cl)c1=O
[46] Cc1cc(C(=O)Nc2cccc3c2O[C@H](CN(C)CC2CC2)[C@@H](C)CN([C@H](C)CO)C3=O)n(C)n1
[47] CC1=Nc2cccc3cccc(c23)N1
[48] COC(=O)c1ccc(=O)n(Cc2ccco2)c1
[49] CC(C)C(=O)Nc1cccc(-c2nc3ncccc3o2)c1
screen / no.,41,42,43,44,45,46,47,48,49
ClpP mod,0.6%,-0.3%,-4.4%,1.3%,u,-1.2%,1.0%,-11%,3.8%
TRPML1 blocker,12,-17,-22,13,24,-9,4,1,4
gsp antag,-2%,-6%,9%,8%,-7%,-2%,-15%,7%,6%
Menin MLL FP FL,3.9,7.4,9.2,1.7,-0.5,x,-1.1,-0.2,1.6
TRPV1 potentiator,-10,3,0,-19,-2,x,-7,12,-7
Sfp PPTase inh,-6%,20µM*,17%,3%,-1%,x,u,1%,13%
gsp agonist,-19%,-2%,-10%,-17%,-3%,x,-19%,0%,14%

Record cards, as listed above:
N#Cc1c(-c2ccccc2)ccn(Cc2ccccc2Cl)c1=O as listed: ClpP mod = u; TRPML1 blocker = 24; gsp antag = -7%; Menin MLL FP FL = -0.5; TRPV1 potentiator = -2; Sfp PPTase inh = -1%; gsp agonist = -3%
CC1=Nc2cccc3cccc(c23)N1 as listed: ClpP mod = 1.0%; TRPML1 blocker = 4; gsp antag = -15%; Menin MLL FP FL = -1.1; TRPV1 potentiator = -7; Sfp PPTase inh = u; gsp agonist = -19%
COC(=O)c1ccc(=O)n(Cc2ccco2)c1 as listed: ClpP mod = -11%; TRPML1 blocker = 1; gsp antag = 7%; Menin MLL FP FL = -0.2; TRPV1 potentiator = 12; Sfp PPTase inh = 1%; gsp agonist = 0%
